Screens (PubChem)
FGF22 binding = shifts melting point of recombinant human FGF22 | recombinant FGF22 thermal shift, SYPRO orange fluorescence; percent of sucrose octasulfate shift, DMSO zero | calls only at 9.99 µM | hit rate 1.5% among 340,000 | AID 651658;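 active = melting point raised past a set limit in the mean and every replicate; three in four hits are not shown here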
Target sequence (Q9HCT0 whole entry, looked up): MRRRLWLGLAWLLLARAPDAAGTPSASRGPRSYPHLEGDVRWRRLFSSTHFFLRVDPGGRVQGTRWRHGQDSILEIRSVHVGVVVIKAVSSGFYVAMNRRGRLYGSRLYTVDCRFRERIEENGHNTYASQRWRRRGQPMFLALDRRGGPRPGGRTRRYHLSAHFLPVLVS
HNF4A DNA FP = change in binding of human HNF4 alpha to DNA | P41235 | activity change, % at 10 µM | HNF4a-FITC DNA binding, fluorescence polarization, 1 h | hit rate 0.3% among 360,000; in the data active = activity change above about 30%, passing the limit was not always enough;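 note: controls were the assay level and a saturating level of protein; the project sought stronger binding though the title names inhibitors; some compounds called inactive have numbers as strong as hits; positive values seem to mean higher polarization but the record does not say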
Target sequence (P41235 whole entry, looked up): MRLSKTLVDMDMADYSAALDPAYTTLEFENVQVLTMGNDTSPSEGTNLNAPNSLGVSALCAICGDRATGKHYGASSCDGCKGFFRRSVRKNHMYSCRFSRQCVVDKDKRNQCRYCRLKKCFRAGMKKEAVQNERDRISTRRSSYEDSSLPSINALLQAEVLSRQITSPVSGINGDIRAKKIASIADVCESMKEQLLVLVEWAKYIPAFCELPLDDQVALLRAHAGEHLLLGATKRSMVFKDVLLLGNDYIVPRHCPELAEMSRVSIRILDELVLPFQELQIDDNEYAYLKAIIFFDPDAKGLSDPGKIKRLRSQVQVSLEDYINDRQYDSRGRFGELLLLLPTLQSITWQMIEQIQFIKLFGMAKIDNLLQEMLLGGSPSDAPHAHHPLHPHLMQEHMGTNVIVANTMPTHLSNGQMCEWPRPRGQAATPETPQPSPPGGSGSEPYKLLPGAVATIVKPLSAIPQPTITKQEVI
Active calls of the source: *; i = inactive; x = not tested or not shown; + = active, no number. This is a subset; count on the stated rates, not on these rows.

Preview, 2 compounds:
Sequence of screens – FGF22 binding	HNF4A DNA FP
> O=C(CN1C(=O)NC2(CCc3ccccc32)C1=O)NC1CCCCC1 (stereo unspecified)
 : x	0.0
> CC(=O)Nc1ccc2c3c(ccc([N+](=O)[O-])c13)CC2
 : i	4.6

This part in full, from the first entry:
Sequence of screens – FGF22 binding	HNF4A DNA FP
> O=C(CN1C(=O)NC2(CCc3ccccc32)C1=O)NC1CCCCC1 (stereo unspecified)
 : x	0.0
> CC(=O)Nc1ccc2c3c(ccc([N+](=O)[O-])c13)CC2
 : i	4.6
> O=C(NC1CC1)c1ccc(-c2ccc3nccn3c2)cc1
 : i	1.0
> CN(C)c1ccc(CNC(=O)/C=C/[C@H]2O[C@@H](n3cnc4c(NC(=O)c5ccccc5)ncnc43)[C@H](O)[C@@H]2O)cc1
 : i	6.3
> O=C(NCc1ccccc1)c1cc(C2CCCN(S(=O)(=O)c3ccccc3)C2)on1 (stereo unspecified)
 : i	-1.6
> NS(=O)(=O)c1ccc(CCNC(=O)c2cc(S(=O)(=O)N3CCCCC3)ccc2Cl)cc1
 : i	-2.3
> CC(C)NC(=O)N(C)C[C@@H]1Oc2cc(C#Cc3ccccn3)ccc2S(=O)(=O)N([C@@H](C)CO)C[C@H]1C
 : i	-1.9
> CCCCNC(=O)c1nc(C2CCN(S(=O)(=O)c3ccccc3C(F)(F)F)CC2)oc1-c1ccccc1
 : i	4.5
> Cc1ccc(S(=O)(=O)N2C[C@H]3[C@H]4C(=O)N(c5ccccc5)C(=O)[C@H]4C[C@H](OC(=O)Nc4c(C)noc4C)[C@@]3(O)C2)cc1
 : i	0.0
> C[C@@H]1CCCCO[C@@H](CN(C)Cc2ccccc2)[C@@H](C)CN([C@H](C)CO)C(=O)c2cc(NC(=O)Nc3cccc4ccccc34)ccc2O1
 : i	1.2
> CC(=O)N[C@@H]1C=C[C@@H](CC(=O)NCc2ccc(Cl)cc2)O[C@@H]1CO
 : i	-0.7
> COc1ccc([C@H]2C[C@H](n3cc(C4CC4)nn3)[C@@H](O)CN2CC2CCCCC2)cc1
 : i	5.8
> CC(CC(=O)Nc1ccc2c(c1)c(=O)n(C)n2Cc1ccc(F)cc1)c1ccccc1 (stereo unspecified)
 : i	-2.3
> CCNC(=O)C1(C)CCN1Cc1cc(-c2ccccc2)n(C)n1 (stereo unspecified)
 : i	-1.0
> O=C(NCc1ccccn1)[C@@H]1CCCN1C(=O)[C@@H]1CCCN1C(=O)c1cccc2ccccc12
 : i	-2.0
> C=CCNc1ncnc2c1ncn2[C@H]1CN(Cc2ccc3c(c2)OCO3)C[C@@H](CO)O1
 : i	-0.5
> Cc1cc(C(=O)COC(=O)c2ccc(NC(=O)CC#N)cc2)c(C)n1CC(F)(F)F
 : i	7.3
> Nc1[nH]c(C(=O)c2ccccc2)c(-c2ccc(Cl)cc2)c1C(=O)NCc1ccccc1
 : i	2.2
> Cc1cn([C@H]2C[C@H](O)[C@@H](CNCc3cccn3-c3ccncc3)O2)c(=O)[nH]c1=O
 : i	3.8
> Fc1ccccc1-c1nc(NCC2CC2)nc2ccsc12
 : i	5.9
> COc1ccc(C(O)c2nc(-c3ccncc3)cs2)cc1 (stereo unspecified)
 : i	1.9
> O=C(Nc1cccnc1)C1Cc2c(-c3ccco3)ccnc2O1 (stereo unspecified)
 : i	1.8
> CCCCCNC(=O)C(c1cccc2ccccc12)n1c(=O)c(-c2ccco2)nc2ccccc21 (stereo unspecified)
 : i	39.7*
> O=C1NC[C@H](Cc2ccc(O)cc2)N(C[C@@H]2CCCN2C[C@H](Cc2ccccc2)N2C[C@H](Cc3ccc(O)cc3)N(CC3CCCCC3)C(=O)C2=O)C1=O
 : i	1.7
> COc1cc(Cc2cc(OC)c(O)c(OC)c2)cc(OC)c1O
 : x	4.0
> CC1=C(C(=O)N(C(C)C)C(C)C)CC(CC(=O)NC2CCCCC2)C(=O)N1CCC1=CCCCC1 (stereo unspecified)
 : i	-1.9
> Cc1ccnn1CCC(=O)N1CCCC(Nc2ccc(C(C)C)cc2)C1 (stereo unspecified)
 : i	4.0
> Cc1cc(CNC[C@H]2O[C@@H](n3ccc(=O)[nH]c3=O)[C@H](O)[C@@H]2O)no1
 : i	0.8
> C#CCOCC1CN(c2ccccc2)C(=O)O1 (stereo unspecified)
 : i	-1.6
> CN(C)c1ccccc1-c1cc(NC=O)c2ncc(-c3cccc(C(F)(F)F)c3)n2c1
 : i	-91.9
> CNC[C@@H]1OCc2ccccc2-c2ccccc2C(=O)N([C@H](C)CO)C[C@@H]1C
 : i	3.1
> CCNC(=O)C1CCCN(C(=O)Cc2cccs2)CC1 (stereo unspecified)
 : i	0.6
> Cc1[nH]c2ccccc2c1C(=O)c1cc(Cc2ccccc2)sc1N
 : i	2.2
> CC(C)C[C@@H]1COc2cccc(N3CCC[C@H]3CO)c2S(=O)(=O)N1
 : i	0.2
> CC(=O)NCCCNC(=S)NCCCN(Cc1ccc(Cl)cc1)c1ccc(Br)cn1
 : i	-1.7
> Cc1cc(F)ccc1-c1cc(C(=O)Nc2ccccc2)[nH]n1
 : i	4.1
> O=C(Nc1cccc2ccccc12)NC1CC1
 : i	4.7
> CC1=C(C(=O)N2CCCCCC2)CC(CC(=O)NCc2ccco2)C(=O)N1Cc1ccccc1 (stereo unspecified)
 : i	-5.1
> COc1cc(OC)cc(-c2c(Sc3ccccc3)c3cc(-c4ccc(OC)c(F)c4)ccc3n2C)c1
 : i	2.6
> CCc1nc2ccc(C(=O)NCCCN3CCCC3=O)cn2c1N(C)C(=O)Nc1ccccc1OC
 : i	1.2

Record cards, as listed above. Values in the order: FGF22 binding, HNF4A DNA FP
O=C(Nc1cccc2ccccc12)NC1CC1 reads i, 4.7
CC(CC(=O)Nc1ccc2c(c1)c(=O)n(C)n2Cc1ccc(F)cc1)c1ccccc1 (stereo unspecified) reads i, -2.3
CC(C)C[C@@H]1COc2cccc(N3CCC[C@H]3CO)c2S(=O)(=O)N1 reads i, 0.2
O=C(NCc1ccccn1)[C@@H]1CCCN1C(=O)[C@@H]1CCCN1C(=O)c1cccc2ccccc12 reads i, -2.0
CC1=C(C(=O)N(C(C)C)C(C)C)CC(CC(=O)NC2CCCCC2)C(=O)N1CCC1=CCCCC1 (stereo unspecified) reads i, -1.9

Later entries
Sequence of screens – FGF22 binding	HNF4A DNA FP
> CCS(=O)(=O)c1nc(S(=O)(=O)c2ccc(C)cc2)c(N2CCCCCC2)s1
 : i	2.9
> C[C@H](CO)N1C[C@H](C)[C@@H](CN(C)C(=O)Cc2ccccc2)OCc2cnnn2CCCC1=O
 : i	0.4
> C[C@@H]1CN([C@@H](C)CO)C(=O)CCCn2nncc2CO[C@H]1CN(C)Cc1ccccc1C(F)(F)F
 : i	-1.3
> CCCCCNC(=O)C(c1ccccc1)n1c(=O)c(-c2cc3ccccc3[nH]2)nc2ccccc21 (stereo unspecified)
 : i	0.1
> CCCS(=O)(=O)NC(=O)C1(C)CCN(C(=O)COCc2ccccc2)C1 (stereo unspecified)
 : i	2.7
> OC(c1cc(F)cc(Cl)c1)c1ncc(-c2ccc3ccccc3c2)[nH]1 (stereo unspecified)
 : i	4.0
> CCCCc1c(O)nc(SCC(=O)N2CCOCC2)n(-c2ccc(C)cc2)c1=O
 : i	0.1
> CC1(C(=O)NS(=O)(=O)C2CC2)CCN(C(=O)c2ccc3ccccc3n2)C1 (stereo unspecified)
 : i	0.6
> COC(=O)c1cccc(NC(=O)c2cccc(-n3cnnn3)c2)c1
 : i	-4.5
> COc1cccc(-c2cnc(C(O)c3cc(C)c(OC)c(C)c3)[nH]2)c1 (stereo unspecified)
 : i	2.5
> CCOC(=O)C1CC(c2ccccc2)=NN1c1ccccc1 (stereo unspecified)
 : i	0.5
> CCOC(=O)[C@]12CCC=C1N(CCC1=CCCCC1)C(=O)[C@H](CC(=O)NCCCOC)C2
 : i	-0.2
> C[C@H]1CN(CCc2ccccc2)C(=O)[C@@H]1CC(=O)Nc1ccccc1
 : i	5.9
> CCOC(=O)C(=Cc1ccccc1)C(=O)c1ccccc1
 : i	1.3
> CC(C)Nc1ncnc2c1ncn2[C@H]1CN(Cc2ccccc2)C[C@@H](CO)O1
 : i	0.0
> CC1(Cc2ccccc2OC(F)(F)F)C(=O)Nc2cc(-c3ccccc3Cl)ccc21 (stereo unspecified)
 : i	-2.7
> O=S(=O)(c1ccc(NC(=S)N2CCOCC2)cc1)N1CCCCC1
 : i	-1.9
> CCOC(=O)CC1C(=O)NCCN1C(=S)NC(=O)c1ccc(C)c(Br)c1 (stereo unspecified)
 : i	1.3
> O=C1NC(=O)C2(N1)C(=O)c1cccc3cccc2c13 (stereo unspecified)
 : i	-141.8
> CC1(C(=O)NC2CCN(Cc3ccccc3)CC2)CCN1Cc1ccc2ccccc2c1 (stereo unspecified)
 : i	-3.0
> COc1ccc(CCNC(=O)Nc2ccc3nc([C@@H]4O[C@H](CO)[C@@H](O)[C@H](O)[C@H]4O)[nH]c3c2)cc1Br
 : i	-2.5
> COc1cccc(-c2cc(NC=O)c3ncc(-c4cccc(C(=O)NCCN(C)C)c4)n3c2)c1
 : i	11.8
> Cc1ccc([C@H]2C[C@@H](O)[C@H](n3cc(C4CC4)nn3)CN2C(=O)C2CCCCC2)cc1
 : i	0.5
> Cc1ccc(S(=O)(=O)N2CCC(=O)N([C@H](COCc3ccc(C(F)(F)F)cc3)Cc3ccccc3)CC2)cc1
 : i	2.1
> CC(=O)CC1c2cc(F)ccc2C=C(c2ccsc2)N1c1ccc(C#Cc2cncn2C)cc1 (stereo unspecified)
 : +	4.3
> Cc1ccc(C)c(C(O)c2ncc(-c3ccc(Cl)cc3)[nH]2)c1 (stereo unspecified)
 : i	5.9
> O=C(NCc1ccc(F)cc1)c1cc(C2CCCCN2C(=O)c2ccccc2)on1 (stereo unspecified)
 : i	3.1
> Cc1cc(F)ccc1C(O)c1ncc(-c2cccc(F)c2)[nH]1 (stereo unspecified)
 : i	2.4
> COc1ncc(-c2cccc3nccn23)c(OC)n1
 : i	-3.0
> COC(=O)N1CCCCC1c1cc(C(=O)Nc2cccc3c2CCCC3)no1 (stereo unspecified)
 : i	-1.5
> CCc1nc2ccc(C(=O)N3CCN(S(=O)(=O)CC)CC3)cn2c1N(C)C(=O)c1cccc(OC)c1
 : i	1.5
> CC(=O)c1ccccc1NC(=O)COC(=O)C1COc2ccccc2O1 (stereo unspecified)
 : i	-0.4
> CCNC(=O)C1(C)CCCN(C(=O)c2c(C)noc2C)C1 (stereo unspecified)
 : i	3.6
> C=CCCC(=O)N1C[C@@H](CO)[C@@H](NC)C[C@H]1c1ccccc1Br
 : i	0.1
> N#Cc1ccc(-c2nc3c(Cl)cc(C(F)(F)F)cn3c2Cc2ccsc2)cc1
 : i	10.6
> OC(c1ccccc1)c1nc(-c2cccc3cccnc23)cs1 (stereo unspecified)
 : i	-0.2
> Cc1nc(-c2ccc(F)cc2)c(CC(=O)N(C)CC(=O)Nc2cccc(F)c2)s1
 : i	3.4
> O=C(NCc1ccccc1)C(c1ccncc1)n1c(=O)c(-c2ccco2)nc2ccccc21 (stereo unspecified)
 : i	3.2
> Cc1ccc(N2CC(C(=O)Nc3cccc(S(=O)(=O)N4CCOCC4)c3)CC2=O)cc1 (stereo unspecified)
 : i	2.0
> c1ccc(SC23CC4CC(CC(C4)C2)C3)nc1
 : i	-0.1
> COC(=O)C1=CN(c2ccc(F)cc2)C(N)=C(C#N)C1c1cccc(OC)c1OC (stereo unspecified)
 : i	0.4
> CC1(C(=O)O)CCCN(C(=O)/C=C/c2ccccc2)C1 (stereo unspecified)
 : i	-1.3
> COc1ccc(NC(=O)C(c2ccncc2)n2c(=O)c(-c3ccco3)nc3ccccc32)cc1 (stereo unspecified)
 : i	2.4
> CC(C)CCNC(=O)C1(C)CCN1Cc1ccc(-c2ccccn2)cc1 (stereo unspecified)
 : i	-1.8
> COC(=O)[C@]12CCCCC=C1N(Cc1ccc(Cl)cc1Cl)C(=O)[C@H](CC(=O)NCc1ccc(OC)c(OC)c1)C2
 : i	0.3
> CC(C)C[C@H]1CN(CCCC[C@@H]2CNC(=O)C(=O)N2Cc2ccccc2)C(=O)C(=O)N1CCc1ccc(O)cc1
 : i	2.4
> OCCN1CCN(c2cc(-c3ccc(CO)cc3)nc3ccnn23)CC1
 : i	-1.8
> COc1ccc(CN2C(=O)C(CC(=O)NC3CCCC3)CC(C(=O)N3CCOCC3)=C2C)cc1 (stereo unspecified)
 : i	3.5
> COc1ccc(Cc2c(C3CCCCC3)nc3c4ccccc4ccn23)c(C)c1
 : i	15.3
> Cc1cccc(C)c1C(O)c1ncc(-c2ccccc2F)[nH]1 (stereo unspecified)
 : i	-1.2
> CC(=Cc1ccccc1)C(=O)c1ccccc1
 : i	3.7
> C[C@@H]1CN([C@@H](C)CO)C(=O)c2cc(C3=CCCCC3)cnc2O[C@H]1CN(C)C(=O)Nc1cccc(F)c1
 : i	-1.0
> CCCS(=O)(=O)NC(=O)C1(C)CCN(C(=O)c2cc(-c3cccs3)oc2C)C1 (stereo unspecified)
 : i	0.8
> CC(C)NC(=O)C1(C)Cc2c(-c3cccc(C(F)(F)F)c3)ccnc2O1 (stereo unspecified)
 : i	-3.9
> CN(CCc1ccccc1)C(=O)CC1C(=O)NCCN1Cc1ccccn1 (stereo unspecified)
 : i	-6.3
> Cc1cccc(COC[C@H](Cc2ccccc2)N2CCN(C(=O)c3cc(Cl)cc(Cl)c3)CCC2=O)c1
 : i	-5.7
> Cn1nccc1-c1ccc(C(=O)NCc2ccco2)c2occc12
 : i	-4.2
> O=S1(=O)CC(N2CCCC2)CN1Cc1cn(Cc2cccc(Cl)c2)nn1 (stereo unspecified)
 : i	-3.9
> CNc1cncc(-c2ccc(S(C)(=O)=O)cc2)n1
 : i	1.3
> CN1OC[C@@H]2CN[C@H](c3ccc(-c4ccccc4)cc3)C[C@@H]21
 : i	-5.1
> CC(=O)Nc1ccc(-c2ccnc3c2CC(C(=O)NCc2ccco2)O3)cc1 (stereo unspecified)
 : i	3.2
